HIV TAR-Tat = HIV-1 TAR-Tat binding disruption. HIV-1 TAR RNA, Tat peptide displacement FRET; active compounds read high. z-score (no concentration beside the values). 100,000 tested, 0.6% active;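 note: score is relative to mean and SD of negative controls; some compounds called inactive have numbers as strong as hits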
CDC25B CDK2 inh = human CDC25B-CDK2/CyclinA binding inhibition; P30305+P24941; HTRF CDC25B-CDK2/CyclinA binding, anti-His/anti-Flag; active compounds read high; z-score (no concentration beside the values); 94,000 tested, 0.72% active;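 note: score is relative to mean and SD of negative controls; strong numbers were not always called active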
Starred values were filed as active, the others as inactive; / = no result given; & = joins results of further samples.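 Rule for the calls: active = z-score from 3 up in half or more of its runs; inactive = the rest.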

Sequence of screens – HIV TAR-Tat	CDC25B CDK2 inh
CCc1ccccc1NC(c1ccccn1)c1ccc2cccnc2c1O (configuration not stated)
  1.1	0.21
N#CC(C#N)=CNc1ncccn1
  /	-3.5
CCCNC(=O)C(=O)NCC(c1cccs1)S(=O)(=O)c1cccs1 (configuration not stated)
  1.4	/
CCOC(=O)N1CCN(C(=O)C2CCCN2S(=O)(=O)c2ccc3c(c2)CC(C)N3C(C)=O)CC1 (configuration not stated)
  -0.81	/
O=C(NC1CCCC1)c1cc(-c2cccnc2)n[nH]1
  3.7	/
CCOC(=O)N1CCC(N2C(=O)c3ccccc3C2Nc2ccc(F)c(Cl)c2)CC1 (configuration not stated)
  -0.33	-0.12
CCC(Sc1nnc(CSc2ncccn2)n1-c1ccc(OC)cc1)C(=O)OC (configuration not stated)
  1.3	-0.75
CCc1nn2c(=O)cc(COC(=O)c3ccc(Cl)cc3)nc2s1
  0.98	/
Cc1cc(-c2ccc(S(=O)(=O)N3CCc4ccccc4C3)s2)n[nH]1
  -0.03	/
O=C(O)C1=CC(c2ccc(Cl)cc2)n2ncnc2N1 (configuration not stated)
  2.1	/

A different layout for some results above.
SMILES	HIV TAR-Tat	CDC25B CDK2 inh
CCc1ccccc1NC(c1ccccn1)c1ccc2cccnc2c1O (configuration not stated)	1.1	0.21
N#CC(C#N)=CNc1ncccn1	/	-3.5
CCCNC(=O)C(=O)NCC(c1cccs1)S(=O)(=O)c1cccs1 (configuration not stated)	1.4	/
CCOC(=O)N1CCN(C(=O)C2CCCN2S(=O)(=O)c2ccc3c(c2)CC(C)N3C(C)=O)CC1 (configuration not stated)	-0.81	/
O=C(NC1CCCC1)c1cc(-c2cccnc2)n[nH]1	3.7	/
CCOC(=O)N1CCC(N2C(=O)c3ccccc3C2Nc2ccc(F)c(Cl)c2)CC1 (configuration not stated)	-0.33	-0.12

Carrying on:
Sequence of screens – HIV TAR-Tat	CDC25B CDK2 inh
Fc1ccccc1-c1nn2c(COc3ccccc3)nnc2s1
  2.5	-0.3
COc1ccccc1-n1c(=O)[nH]c2c(c1=O)C(C)(C)Cc1ccccc1-2
  0.07	1.2
Cc1cc2c(cc3c(=O)n(CCCC(=O)NCc4ccco4)nc(C)n32)o1
  0.7	-1.5
O=C(Oc1ccccc1)c1nc(S(=O)(=O)Cc2ccccc2F)ncc1Cl
  -0.49	-0.3
Cn1c(=O)c2sccc2n2c(CCCC(=O)NCCCN3CCOCC3)nnc12
  -1.5	/
Cc1cc(-c2ccc(C)c(S(=O)(=O)N3CC(C)Sc4ccccc43)c2)on1 (configuration not stated)
  2	/
Cn1c(=O)c2c(-c3ccc(Cl)cc3)n(-c3ccccc3Cl)cc2n(C)c1=O
  1.6	-1.8
CCCSc1nc2c(c(=O)[nH]1)C(c1ccc(F)cc1F)CC(=O)N2 (configuration not stated)
  0.32	0.4
Cc1cc2c3c([nH]c2cc1S(=O)(=O)N(CCN1CCOCC1)Cc1ccco1)CCCC3=O
  -0.51	/
Cc1cc(OCc2cc(=O)n3c(-c4ccccc4)csc3n2)cc(C)c1Cl
  0.71	-1.1

Arranged by count of non-hydrogen atoms (lowest first): some entries from above.
Sequence of screens – HIV TAR-Tat	CDC25B CDK2 inh
Cn1c(=O)c2c(-c3ccc(Cl)cc3)n(-c3ccccc3Cl)cc2n(C)c1=O
  1.6	-1.8
Cn1c(=O)c2sccc2n2c(CCCC(=O)NCCCN3CCOCC3)nnc12
  -1.5	/
Cc1cc2c3c([nH]c2cc1S(=O)(=O)N(CCN1CCOCC1)Cc1ccco1)CCCC3=O
  -0.51	/

Later entries:
Sequence of screens – HIV TAR-Tat	CDC25B CDK2 inh
Cn1cc(-c2cc3n(n2)CCCN3C(=O)CCC(=O)N2CCCC2)c2ccccc21
  2.5	/
S=C(NNC(=S)NC1CC2C=CC1C2)Nc1ccc(Br)c(Cl)c1 (configuration not stated)
  /	-0.13
Cc1ccc2nc(-c3cccnc3)c(Nc3ccc4c(c3)OCO4)n2c1
  /	-2.4
COc1ccc(-c2nn3c(-c4ccccc4Cl)nnc3s2)cc1OC
  /	2.1
O=c1c2sc3ccccc3c2[nH]c(=S)n1CCCN1CCOCC1
  /	-2.3
CC(C)c1ccc(Nc2c(O)c(=O)c2=O)cc1
  -0.03	/
CCc1nc(NC(=O)c2sc(C)nc2C)sc1C(=O)OC
  1.1	-0.77
O=S(=O)(NCCc1csc(-c2cccc(F)c2)n1)c1ccc(F)cc1F
  0.35	/
CCc1cc(C(=O)c2ccc(OC)cc2)c(N)s1
  /	-1.9
O=C(NCc1ccc2c(c1)OCO2)c1cccn1-c1nnc(N2CCCC2)s1
  0.09	/
O=[N+]([O-])c1cc(C(F)(F)F)ccc1NCc1ccccc1
  /	-2.1
CCOC(=O)C(C)n1nc(C)c2c(C)n(-c3ccc(C)cc3)nc2c1=O (configuration not stated)
  1.1	0.33
CCN(CC)c1nc(N)c([N+](=O)[O-])c(Nc2cccc(Cl)c2)n1
  1.9	/
O=C1c2ccccc2-c2onc3c(N4CCCC4)cc(NCCO)c1c23
  -5.9	-1.1
Cc1nc2sccn2c(=O)c1NC(=O)CC(c1ccccc1)c1ccccc1
  1.8	/
CC1CCCCN1CCCNC(=O)c1ccc2c(c1)NC(=O)CS2 (configuration not stated)
  /	-1.5
COCC(=O)Nc1cc(=O)n(C)c(=O)n1C
  2.4	/
CSc1nc(-c2cnccn2)nc(-c2ccccc2Cl)c1C#N
  /	-1.2
Cc1cc(-c2ccc(C)c(S(=O)(=O)Nc3ccc(C)c(C)c3)c2)on1
  -0.55	/
CCn1c2ccccc2c2cc(CNCCSc3nnnn3C)ccc21
  0.3	1.1
CC(C)n1c(N2CCNCC2)nc2c1c(=O)[nH]c(=O)n2C
  /	-0.27
CC(=O)c1c(C)[nH]c(C(=O)Nc2nccs2)c1C
  /	-2.1
CN(CC(=O)NC1CCCCC1)S(=O)(=O)c1ccc2c(c1)c(=O)n(C)c(=O)n2C
  /	-2
COc1cnc(CSc2nc(C)cs2)cc1OCC(=O)NC(C)C
  0.3	/
COc1ccccc1CNc1c(-c2ccc(Cl)c(F)c2)nc2ncccn12
  0.39	/
Cc1cc(C)cc(NS(=O)(=O)c2ccc(-n3cccn3)cc2)c1
  0.59	/
CCCS(=O)(=O)n1nc(-c2ccccc2)cc1N
  -0.28	-1.2
Oc1ccccc1C=Nc1ccc(N2CCOCC2)cc1
  /	-1.9
CCS(=O)(=O)N1CCC2(CC1)OC(=O)C(C)=C2C(=O)N1CCOCC1
  1.1	/
Cc1ccc(NC(=O)NC(C)c2c(-n3cccc3)sc3c2CCCC3)cc1F (configuration not stated)
  0.1	-0.52
O=c1[nH]c(-c2ccccc2)nc2c1Cc1cc(Br)ccc1O2
  2.1	-1.2
O=C(CSc1nc2ncccc2[nH]1)Nc1ccc(Cl)cc1F
  0.54	/
Cc1ccc(C)n1CC1CCN(C(=O)C2CCN(c3ccc(-c4cccs4)nn3)CC2)CC1
  -1.6	/
Cn1c(SCC(=O)Nc2nc3ccccc3s2)ncc(C(=O)Nc2ccc(F)cc2)c1=O
  -0.28	/
O=c1ccc2c(OCCCCc3ccccc3)c3ccoc3cc2o1
  /	-1.5
CCN(CC)C(=O)c1sc2nc3c(cc2c1N)CCCC3
  0.63	-1
Cn1ncc2c(N3CCOCC3)nc(NCCN3CCc4ccccc4C3)nc21
  -0.32	/
O=C(COCc1cc(-c2ccco2)on1)Nc1cc(-c2cccc(Cl)c2)no1
  -2.3	/
Cc1ccc(N2C(=O)C3N=NN(Cc4cccc(C)c4)C3C2=O)cc1 (configuration not stated)
  1	1.8
O=C(CN1C(=O)c2cccnc2Sc2ccccc21)NCCN1CCCC1
  0.74	/
COc1cccc(N2C(=O)CC(Sc3nc4ccccc4s3)C2=O)c1 (configuration not stated)
  -1.6	-1.4
COCCCN[C@H]1CS(=O)(=O)C[C@@H]1S(=O)(=O)c1ccc(F)c(C)c1
  2	-1.3
CS(=O)(=O)Cc1c(Cl)cccc1Cl
  /	-0.8
CC(C)NC(=O)CSc1nccn1Cc1ccco1
  0.86	/
CCC(C)N(CCNC(=O)C(C)n1c2ccccc2c2nc(=O)cc(C)n21)C1CCCCC1 (configuration not stated)
  -1.3	-1.7
CN(NC(=O)Nc1c(Cl)cccc1Cl)C(=S)SCc1c(F)cccc1Cl
  /	-1.6
Cc1nnc2sc(NC(=O)C(C)C)nn12
  2.2	-0.91
O=C(CN1C(=O)C2CCCCC2C1=O)N1CCN(c2ccc(F)cc2)CC1 (configuration not stated)
  1.1	0.77
COC(=O)CSc1nnc(CSc2ncccn2)n1CCc1ccccc1
  0.01	-0.66
Cc1cc(=O)oc2c1ccc1occc12
  /	0

More compounds
Sequence of screens – HIV TAR-Tat	CDC25B CDK2 inh
Cc1cccc2nc(CSc3nc4[nH]ncc4c(=O)n3-c3ccccc3Cl)cc(=O)n12
  /	-2.2
CCC1CN(C(=O)Nc2cc(F)ccc2F)c2ccccc2O1 (configuration not stated)
  2.7	/
Cc1cc(CNC(=O)CN2C(=O)c3ccccc3C2=O)c(C(F)(F)F)o1
  /	0.7
O=C(NC1CC1)c1ccc(Cn2c(=O)c3cccn3c3cccnc32)cc1
  -0.05	/
Cn1c(=O)c2c(c3ccccc31)OC(=O)CC2c1ccc2c(c1)OCO2 (configuration not stated)
  0.74	4.6
Cc1ncc(-c2ccc(C)c(S(=O)(=O)Nc3ccc(Br)cc3F)c2)o1
  0.15	/
COc1ccc(-n2nc3c(c2NC(=O)C(=O)N2CCCC2)CSC3)cc1
  0.91	/
CNC(=O)CSc1nccn1Cc1ccco1
  2.5	/
CS(=O)(=O)CCCCN=C=S
  1.1	/
Cc1cc(-c2ccc(S(=O)(=O)N(C)Cc3ccccc3)s2)on1
  0.73	/
c1ccc(CCNc2ncccc2-c2nc(-c3ccccc3)no2)cc1
  1.2	1.9
CN1CCN(CCNC(=O)c2ccc(N3CCOc4ccccc43)s2)CC1
  0.2	/
CC12CCC(c3c(C(=O)O)nn(-c4ccccc4)c31)C2(C)C (configuration not stated)
  /	-1.3&1.1
O=C(NC1CCCC1)C1c2cc(Br)ccc2OCC(=O)N1c1cc(F)ccc1F (configuration not stated)
  0.59	/
COc1ccc(-c2nc3ccccc3c3nnc(SCc4cccnc4)n23)cc1
  1.5	/
COc1ccc(Cl)cc1NC(=O)CSc1nnc(Cc2c(C)nc3c(C)cccn3c2=O)n1C
  -0.43	-2.2
Cc1cc(-c2ccc(S(=O)(=O)Nc3ccccc3F)s2)on1
  -1.2	/
NC(=O)Cn1ccn(-c2ccc(F)cc2)c(=O)c1=O
  0.28	/
CCC(CN1CCOCC1)NS(=O)(=O)c1cc(C(=O)OC)n(C)c1 (configuration not stated)
  0.87	/
COC(=O)c1cncc(C(=O)OC)c1
  1.2	1.1
Cc1cc2nsnc2cc1Cl
  /	-1.9
Cc1ccc(-c2nc(C(N)=O)c3[nH]c(=O)n(-c4ccc(F)cc4)c3n2)cc1
  0.76	/
COc1ccc(OCc2nnc(NC(=O)C(=O)c3c[nH]c4ccccc34)s2)cc1
  2.3	-0.93
CSc1cccc(NS(=O)(=O)c2ccc(-c3n[nH]c(C)c3C)s2)c1
  -2.4	/
Cc1ccc(Nc2ncnc3onc(-c4ccc(F)cc4)c23)cc1
  0.06	/
Cc1cc(-c2ccc(S(=O)(=O)N3CCN(c4ncccn4)CC3)s2)on1
  1.9	/
CCCN(CCC)S(=O)(=O)c1cc2[nH]c3c(c2cc1CC)C(=O)CC(C)(C)C3
  1.2	/
COc1ccc(NC(=O)Nc2cccs2)cn1
  /	-0.85
N#Cc1nc2c(C#N)c(N)n(Cc3ccco3)c2nc1C#N
  /	-1.8
CCS(=O)(=O)c1ncc(Cl)c(C(=O)NC2CCS(=O)(=O)C2)n1 (configuration not stated)
  2	-0.28
CCCCn1c(Oc2ccc(F)cc2)nc2c1c(=O)n(C)c(=O)n2C
  -0.01	-0.61
COc1cc(NS(=O)(=O)c2ccc(-c3cc(C)[nH]n3)s2)cc(OC)c1
  0.69	/
O=C(CCS(=O)(=O)c1ccc2c(c1)NC(=O)CO2)NCc1ccc2c(c1)OCO2
  2.2	/
CCCCCNc1nc(-c2ccccc2)c2c(c1C#N)CC(C)(C)OC2
  -0.66	-0.92
CCc1cc2c(cc3c(=O)n(CCCC(=O)NC4CCC(C)CC4)nc(CC)n32)s1 (configuration not stated)
  0.45	-1.3
Cc1cc(-c2ccc(S(=O)(=O)Nc3ccc(F)cc3C)s2)n[nH]1
  -0.32	/
COc1ccccc1C1C=C(c2ccc(F)cc2)Nc2ncnn21 (configuration not stated)
  0.76	/
O=C(Nc1ccc(OCc2cc(=O)n3ccccc3n2)cc1)C1CCCCC1
  -3.5	/
Cn1c(=O)c2c(-c3ccccc3Cl)n(-c3ccccc3O)cc2n(C)c1=O
  1.8	-2
COc1ccc(NC(=O)Nc2nc3ccc(S(C)(=O)=O)cc3s2)cc1
  1.4	-1.4
Cn1c(=O)[nH]c(=O)c2c1nc(N1CCCC1)n2CCSc1nc2ccccc2s1
  /	-1.9
CCCCc1nn2c(=O)cc(COC(=O)CSc3ccccc3)nc2s1
  -0.44	/
O=C(NC1CCCC1)c1cnn2c(C(F)F)cc(-c3ccccc3)nc12
  0.06	0.4
O=C(O)c1ccc2[nH]c3c(c2c1)CSCC3
  1.1	-0.44
Cc1ccc(CN2C(=O)C(=O)c3cc(Br)cc(C)c32)cc1
  4.5	-2
CC(C)C(O)(c1ccccc1)C(CN1CCCCC1)c1ccccc1 (configuration not stated)
  1.5	0.55
Cc1cc(NC(=O)Nc2cccs2)ccc1Br
  -7.5	-1.8
Cn1c(=O)n(CC(=O)O)c(=O)c2c1nc1n2CCCN1Cc1ccccc1
  -0.98	-2.1
COc1ccc(C2NC(=O)NC2=O)cc1 (configuration not stated)
  1.6	-1.6
O=c1oc2ccccc2c2c1nnn2CCO
  1.4	-3.1
CCCC(=O)NC(C)C(c1cccs1)N1CCN(C)CC1 (configuration not stated)
  /	0.21

Bioassay records as filed in PubChem.
